Screening data (PubChem BioAssay)
Vaccinia mCherry: inhibitors of vaccinia virus infection (mCherry reporter signal). Vaccinia virus mCherry reporter infection, fluorescence; about a quarter of the inactives have no number. Potency, µM (doses to about 36.5 µM), for inactives: at the top dose activity change, negative = inhibition, hits mostly inhibitors. hit rate 0.63% among 310,000. AID 720579; active = well fitted inhibition curve with a large enough effect; inconclusive = small, poorly fitted or top-dose-only effect; inactive = no such curve, though single readings can be large or run the other way; tested in A549 cells; also: nearly all actives have a fitted effect of over 35% in size; inactives centre near -10
Vaccinia Venus: inhibitors of vaccinia virus (Venus reporter) | Vaccinia virus Venus reporter expression, fluorescence | Potency, µM (highest dose often 36.5 µM), for the others: at the highest dose activity change, negative = inhibition, actives largely listed as inhibitors | hit rate 0.46% among 330,000 | AID 720580; active means well fitted inhibition curve with a large enough effect; inconclusive means small, poorly fitted or top-dose-only effect; inactive means no such curve, though single readings can be large or run the other way; tested in A549 cells; also: nearly all actives have a fitted effect of over 30% in size; inactives centre near -10
The depositor's hits bear a star; i = inactive; ? = inconclusive; . = no result given; & = joins results of further samples; [ ] = another dose, or the depositor's remark. % is scaled to controls: 0 for no effect and ±100 for the full control effect; potency is read from the fitted curve at half-maximal effect.

SMILES	Vaccinia mCherry	Vaccinia Venus
O=C(Nc1c(Cl)cc2c(c1Cl)Cc1cc([N+](=O)[O-])ccc1-2)C(Cl)Cl	i	-12%
O=c1oc2cc(O)ccc2cc1-c1nnc(Nc2ccccc2F)s1	-3%	25%
COc1ccc(CCNC(=O)C(=O)NCC2OCCN2C(=O)c2ccc(Cl)cc2)cc1OC (centres undefined)	i	-20%
Cc1ccccc1NS(=O)(=O)c1ccc2[nH]c3c(c2c1)CCCCC3	-17%	-9%
Cn1cc(Br)c(C(=O)NNC(=O)c2ccc(Br)cc2)n1	-9%	-12%
Cc1cccc(C)c1-n1nnnc1C(C1CC1)N1CCC2(CC1)C(=O)NCN2c1ccccc1 (centres undefined)	28%	6%
O=C(CNC(=O)c1cccs1)Nc1ccc(N2CCOCC2)cc1	-19%	-5%
CCC1=C(c2ccc(C)cc2)S(=O)(=O)N=C1N1CCC(C(=O)NCc2ccc(C)cc2)CC1	-16%	-21%
COc1ccc(-c2nn(C)c3sc(C(=O)N4CCN(c5ccccc5F)CC4)cc23)cc1OC	-7%	-11%
Cc1nc2nc(SCC(=O)c3ccc([N+](=O)[O-])cc3)[nH]c2cc1Br	i	-11%
CCOC(=O)c1cc(CC)sc1NC(=O)CN1CCN(C(=O)C2CCCO2)CC1 (centres undefined)	-19%	-15%
CCN(c1ccccc1)S(=O)(=O)c1ccc(Cl)c(C(=O)NC2CCN(Cc3ccccc3)CC2)c1	?	?
CO[C@@H]1CN(C)C(=O)c2cc(NC(=O)Nc3cc(F)ccc3F)ccc2OC[C@H](C)N(C(=O)c2cnccn2)C[C@@H]1C	3%	-14%
CCc1ccc(CNC(=O)CCc2nc(-c3cccs3)no2)cc1	3%	-7%
CCC1Oc2ccc(C)cc2N(CC(=O)NCCc2ccc(OC)c(OC)c2)C1=O (centres undefined)	-14%	-11%
COCC(=O)N1CCCN(c2nc3c(C)cccc3cc2C#N)CC1	-23%	-13%
COc1ccc(-n2c(=S)[nH]c3cc(C(=O)NCCCN4CCOCC4)ccc3c2=O)cc1	-18%	-1%
CC(=O)c1cccc(NC(=O)CCS(=O)(=O)c2cc3c(cc2C)NC(=O)CO3)c1	4%	7%
CN1C(=O)NC(c2ccccc2[N+](=O)[O-])C2=C1CCCC2=O (centres undefined)	-14%	54%[activator]
CCCC[n+]1c(C)sc2cc(OC)ccc21	i	-10%
NC(c1ccccc1)c1csc(NC(=O)Nc2ccccc2Oc2ccccc2)n1 (centres undefined)	?	?
C[C@H](CO)N1C[C@H](C)[C@@H](CN(C)Cc2ccc3c(c2)OCO3)Oc2ccc(NC(=O)Cn3cnnn3)cc2C1=O	?	-7%
CCN(CC(=O)NCc1ccc(F)cc1)C(=O)c1ccc(COc2ccccc2)cc1	i	-8%
Cc1ccc(C(=O)NNc2nc3ccccc3nc2C(F)(F)F)cc1	.	-7%
C=CCN1C(=O)C(CC(=O)Nc2ccccc2)S/C1=N/c1nccs1 (centres undefined)	3%	11%
COc1ccc(OC)c(-n2c(-c3cc(-c4ccco4)[nH]n3)n[nH]c2=S)c1	i	-4%
CC(C)NC(=O)Cn1cnc2c1c(=O)n(C)c(=O)n2C	i	-5%
Cc1noc(C)c1NC(=O)N(C)C[C@H]1OCc2cn(nn2)CCCC(=O)N([C@@H](C)CO)C[C@@H]1C	-23%	-13%
COCCN(C(=S)Nc1ccc(C)cc1C)C(C)c1ccco1 (centres undefined)	i	1%
COc1ccc(NC(=O)c2cc3c(=O)n(Cc4ccco4)ccc3nc2C)c(OC)c1	-6%	-7%

Quoted from the listing.
Under Vaccinia Venus, O=C(Nc1c(Cl)cc2c(c1Cl)Cc1cc([N+](=O)[O-])ccc1-2)C(Cl)Cl reads -12%
Under Vaccinia Venus, O=c1oc2cc(O)ccc2cc1-c1nnc(Nc2ccccc2F)s1 reads 25%
Under Vaccinia Venus, COc1ccc(NC(=O)c2cc3c(=O)n(Cc4ccco4)ccc3nc2C)c(OC)c1 reads -7%
Under Vaccinia mCherry, CCC1Oc2ccc(C)cc2N(CC(=O)NCCc2ccc(OC)c(OC)c2)C1=O (centres undefined) reads -14%

Further structures
SMILES	Vaccinia mCherry	Vaccinia Venus
COc1ccc(S(=O)(=O)N(C)CC(=O)NCc2cccnc2)cc1	-10%	-7%
CCCCN(C(=O)c1cccc(S(=O)(=O)N2CCCCC2)c1)C1CCS(=O)(=O)C1 (centres undefined)	-19%	-13%
COc1ccc(S(=O)(=O)N(CC(=O)NCc2ccncc2)c2ccc(C)cc2)cc1Br	i	3%
Cc1ccc(C)n1-c1ccc(C#N)cn1	-19%	-12%
O=C(Nc1cccc2nsnc12)c1ccc(F)cc1	.	-16%
COC(=O)[C@@H]1CCCN1Cc1ccc2c(c1)CN(Cc1nccs1)CCO2	i	-10%
COc1cccc(N2C(=O)C(CC(=O)Nc3ccc(F)cc3)N(CCC3=CCCCC3)C2=O)c1 (centres undefined)	-15%	-25%
CN(Cc1nc2ccccc2c(=O)[nH]1)CC(O)COCc1ccco1 (centres undefined)	-25%	-9%
Cc1c(NC(=O)C(C)N(c2ccccc2)S(C)(=O)=O)c(=O)n(-c2ccccc2)n1C (centres undefined)	-10%	-8%
COc1ccc(C)cc1S(=O)(=O)Nc1cc2c3c(c1)C(C)C(=O)N3CCC2 (centres undefined)	i	-12%
CNC(=O)c1c(NC(=O)/C=C/c2ccccc2)sc2c1CCC2	-17%	-16%
COc1ccc(/C=C(\NC(=O)c2ccccc2)C(=O)N2CCN(C)CC2)cc1	-10%	-15%
O=c1c(N=Nc2ccccc2)c[nH]n1-c1ccccc1	i	-17%
Cc1cccc(-n2c(=O)c3c(c4cc(C)ccc4n3C)n(CC(=O)NCCC3=CCCCC3)c2=O)c1	-19%	?
Cc1c(NC(=O)CCCCCN2C(=O)C3C4C=CC(C4)C3C2=O)c(=O)n(-c2ccccc2)n1C (centres undefined)	i	-9%
C/C(Cl)=C/CC1(CN2CCCC2=O)C(=O)NC(=O)NC1=O	-15%	-9%
O=C(CCCCCCCC(=O)N1CCCCC1)N1CCCCC1	i	-12%
Cc1nc2ccccn2c(=O)c1NC(=O)c1cccc2ccccc12	-19%	-8%
Cc1cc(C)c2nc(SC(C)C(=O)NCC(=O)Nc3ccc(F)c(F)c3F)cc(C)c2c1 (centres undefined)	-11%	-4%
Cc1[nH]c2ccccc2c1SCC(=O)NNC(=O)Nc1ccc(OC(F)(F)F)cc1	-10%	-8%
CCN(CC(=O)Nc1ccc(OC)cc1)CC(=O)Nc1ccc2c(c1)OCO2	-5%	-8%
NC(=O)c1ccc(NC(=O)C#Cc2ccccc2)cc1	7.1µM*	-29%
COc1cccc(CN2C(=O)N(c3ccc(C)cc3)C(=O)C2CC(=O)Nc2cc(OC)cc(OC)c2)c1 (centres undefined)	-7%	-4%
CCC(=O)c1cccc2c1N=CC1=C(CC(C)(C)CC1=O)N2	-24%	-11%
CC(C)CC(=O)NCc1nc2cccnc2n1Cc1ccccc1	-3%	-1%
Cc1cccc(N2C(=O)C(CC(=O)Nc3ccc(Cl)cc3)N(Cc3ccco3)C2=O)c1 (centres undefined)	-8%	-15%
O=C(CCNC(=O)c1ccc(Br)cc1)Nc1nccs1	-1%	3%
COc1cc(C(=O)NC2=C(C#N)CCC2)cc(OC)c1OC	-10%	-3%
COc1ccccc1CNC(=O)COC(=O)C1=COCCO1	i	0%
CCOC(=O)C1CCCN(C(=O)COc2ccccc2F)C1 (centres undefined)	i	-1%
Cc1ccc(CNC(=O)[C@@H](NC(=O)Cc2ccccc2)C(C)C)cc1	-20%	-18%
Cc1ccn2c(CNCC3OCCc4ccccc43)c(C(=O)N3CCCCCC3)nc2c1 (centres undefined)	0%	-7%
CCCCOc1ccc(C(=O)Nc2ccc3c(c2)CCCN3S(=O)(=O)c2ccc(C)cc2)cc1	-24%	-27%
CCNC(=S)Nc1cc(-c2ccc(Cl)cc2)[nH]n1	i	-16%
Cc1ccccc1OCC(=O)OCC(=O)NCCNC(=O)COC(=O)COc1ccccc1C	-14%	-2%
Cc1ccc(/C=C/C(=O)NC(=S)N2CCN(c3ccc(F)cc3)CC2)cc1	i	-3%
Cc1ccc(NC(=O)c2c3c(nc4ccccc24)CCC3)cc1	-4%	3%
Clc1ccc2c(c1)-c1nnc(Br)n1-c1ccccc1S2	-30%	-18%
CCCCCN(C(=O)NC(=O)Nc1ccccc1OC)S(C)(=O)=O	-14%	-8%
CC(C)N1C(=O)/C(=C/C=C/c2ccco2)C(=O)N(Cc2ccco2)C1=O	21%	78%[activator]
CCSC1=NCCN1C(=O)C(C)(C)Oc1ccc(Cl)cc1	-13%	-12%
O=c1c2ccccc2c(/C=N/n2cnnc2)c(O)n1-c1ccccc1	-7%	-3%
CCN(CC)S(=O)(=O)c1ccc(N2CCCCC2)c(NC(=O)/C=C/c2ccc(OC)c(OC)c2)c1	-13%	-5%
CC1CN(CC(O)COc2ccc(C(=O)c3ccccc3)cc2)CC(C)O1 (centres undefined)	-23%	-14%
CCn1nc(NC(C)=O)c2cc3ccc(C)cc3nc21	?	-23%

Record cards, as listed above:
Clc1ccc2c(c1)-c1nnc(Br)n1-c1ccccc1S2 is listed as Vaccinia mCherry: -30%; Vaccinia Venus: -18%
CCn1nc(NC(C)=O)c2cc3ccc(C)cc3nc21 is listed as Vaccinia mCherry: ?; Vaccinia Venus: -23%

(cont.)
SMILES	Vaccinia mCherry	Vaccinia Venus
CCCn1c(C(O)c2ccc(OCC)cc2)nc2ccccc21 (centres undefined)	-13%	-19%
CCOC(=O)CCS(=O)(=O)c1ccc(-c2ccc(S(=O)(=O)CCC(=O)OCC)cc2)cc1	-16%	-16%
O=C(O)c1c(Cl)c(Cl)c(Cl)c(Cl)c1C(=O)OCC1CCCO1 (centres undefined)	-13%	-4%
O=C(O)C1CCN(C(=O)COc2ccc3c4c(c(=O)oc3c2)CCCC4)CC1	7%	-5%
CCCC[C@H]1COCCS(=O)(=O)N1Cc1cccc([N+](=O)[O-])c1	-4%	-10%&-12%
CC(=O)Nc1ccc(NC(=O)C2CCCN2/C=C/C(=O)C(F)(F)F)cc1 (centres undefined)	i	-5%
CC(C)(CNS(=O)(=O)c1ccc2ccccc2c1)N1CCOCC1	-15%	-5%
CCN(CC)c1ccc(/C=C2\C(=O)NC(=S)N(C)C2=O)o1	-9%	143%[activator]
Nc1ccc(S(=O)(=O)Nc2cnc3c(Cl)cccc3n2)cc1	-21%	-6%
CN(CC=CCN(C)P(=S)(N1CC1)N1CC1)P(=S)(N1CC1)N1CC1	i	-24%
Cc1ccc(C)c(Nc2nc(NCc3ccco3)nc3nccnc23)c1	?	?
COc1ccc(N2CCN(Cc3cc(=O)c(OCC(=O)NC4CCCC4)co3)CC2)cc1	i	-6%
CC1=CC(=O)C=C(C)C1=NOS(=O)(=O)c1ccccc1	-26%	-21%
CC(=O)c1cccc(NC(=O)C2CCN(S(=O)(=O)c3ccc4[nH]c(=O)ccc4c3)CC2)c1	11%	10%
NNc1nc2sc3c(c2c(=O)n1C1CCCCC1)CCN(Cc1ccccc1)C3	-12%	-8%
COc1ccccc1S(=O)(=O)N(C)C[C@@H]1OCc2cn(nn2)CCCC(=O)N([C@@H](C)CO)C[C@H]1C	i	-8%
CC(C)(C)OC(=O)N1CCC(c2c(C(=O)NC3CC3)cnn2-c2ccccc2)CC1	-5%[7.34 µM]	-9%[7.34 µM]
Cn1nc(C(=O)NCc2cccc(Cl)c2)c2c1-c1ccccc1SC2	-14%	-12%
O=C(C1CCCCC1)N(Cc1nc2sc3c(c2c(=O)[nH]1)CCCC3)Cc1cccs1	.	-5%
C=CCc1ccc(OCC(O)CN2CCc3ccccc3C2)c(OC)c1 (centres undefined)	?	-23%
CCCCC(=O)N(C)c1c(CC)nc2c(OCc3cc(Cl)cc(Cl)c3)cccn12	0%	-18%
Cc1cc(N2CCN(c3ncccn3)CC2)nc2c(C)cccc12	-10%	1%
O=S(=O)(c1ccccc1)c1nc(-c2ccc(Cl)cc2Cl)oc1N1CCCCC1	-17%	-17%
Cc1ccc(Cl)cc1N1CCN(Cc2nnnn2C2CCCCC2)CC1	.	-1%
O=c1[nH]cnc2nn(-c3ccccc3)nc12	-14%	-2%
CC(=O)c1cccc(NC(=O)c2ccc(-c3c(C)noc3C)c3ccoc23)c1	9%	3%
CC(C)(C)OC(=O)N1CCC[C@H]1c1nnc(SCc2ccccc2)o1	?	-18%
COc1ccc(NC(=O)C2CCCN2C(=O)NC2CCCCC2)cc1 (centres undefined)	-11%	-1%
O=C(Nc1cc(C(=O)Nc2ccc(S(=O)(=O)O)cc2S(=O)(=O)O)cc(C(=O)Nc2ccc(S(=O)(=O)O)cc2S(=O)(=O)O)c1)Nc1cc(C(=O)Nc2ccc(S(=O)(=O)O)cc2S(=O)(=O)O)cc(C(=O)Nc2ccc(S(=O)(=O)O)cc2S(=O)(=O)O)c1	-5%	-21%
Cn1nc(C(=O)NNC(=O)C2CSC3(C)CCC(=O)N23)c2ccccc2c1=O (centres undefined)	-10%	0%
CCCNC(=O)c1cc(C2CCCN(C(=O)c3ccc(NC(C)=O)cc3)C2)on1 (centres undefined)	38%[activator]	-1%

2 consecutive entries from above, quoted:
SMILES	Vaccinia mCherry	Vaccinia Venus
Cn1nc(C(=O)NNC(=O)C2CSC3(C)CCC(=O)N23)c2ccccc2c1=O (centres undefined)	-10%	0%
CCCNC(=O)c1cc(C2CCCN(C(=O)c3ccc(NC(C)=O)cc3)C2)on1 (centres undefined)	38%[activator]	-1%

Of the compounds above, these contain a COOH group.
SMILES	Vaccinia mCherry	Vaccinia Venus
O=C(O)c1c(Cl)c(Cl)c(Cl)c(Cl)c1C(=O)OCC1CCCO1 (centres undefined)	-13%	-4%
O=C(O)C1CCN(C(=O)COc2ccc3c4c(c(=O)oc3c2)CCCC4)CC1	7%	-5%
